Screens deposited in PubChem BioAssay by National Center for Advancing Translational Sciences (NCATS).
miR-21 FLuc: raises the signal of a miR-21 reporter | HeLa miR-21 FLuc reporter, luciferase, 48 h | Potency, µM (highest dose often 38.3 µM), for inactives: top-dose reporter change, positive = more light | 340,000 tested, under 10 active; active = well fitted rising curve with a large enough effect; inconclusive = small, poorly fitted or top-dose-only effect; inactive = no such curve, though single readings can be large or run the other way;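 note: % of control where 0% means no effect; miR-21 action dims this reporter so a rising signal means less miR-21 action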
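HeLa cells endogenously expressing miR-21, stably carrying CMV-driven firefly luciferase with a downstream miR-21 binding site, 2000 cells/well. Titrations up to approximately 40 uM, 48 hours; luciferase luminescence read.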
Numbers without * were called inactive; ? = inconclusive.

SMILES	miR-21 FLuc
CC(C)Cn1cc(NC(=O)Nc2cccc(C(F)(F)F)c2)c2ccccc2c1=O	?
CC(C)c1ccc(S(=O)(=O)c2nnn3c2nc(NCc2cccs2)c2sccc23)cc1	-9%
COc1ccccc1CNC(=O)CCCn1c(=O)c2ccccc2n(Cc2ccc(F)cc2)c1=O	-9%
Cc1cccc(NC(=O)CCn2nc(C)c3c(C)n(-c4ccccc4)nc3c2=O)c1C	1%
Cn1c(=O)c2sccc2n2c(CCC(=O)NCc3ccccc3)nnc12	10%
CCc1nn2c(=O)cc(COC(=O)c3cccc(NC(=O)c4ccccc4Cl)c3)nc2s1	-6%
CCN(c1ccccc1)c1nnc(NC(=O)Nc2ccc(Br)cc2F)s1	22%
COc1cn(CC(=O)Nc2cccc(C)c2C)c(CN2CCCCC2)cc1=O	4%
COc1ccc2c(c1)NC(c1cccnc1)=NC(c1ccc(F)cc1)=N2	-42%
COc1cc(C(=O)Nc2ccc3nn(-c4ccc(F)cc4)nc3c2)cc(OC)c1OC	-8%
CCCCn1c(CCCNC(=O)c2cccc(C)c2)nc2ccccc21	26%
CCOC(=O)C(C)NC(=O)c1c(C)oc2ncn(CC(C)C)c(=O)c12 (centres undefined)	-11%

A different layout for some results above:
Structure | miR-21 FLuc
COc1cn(CC(=O)Nc2cccc(C)c2C)c(CN2CCCCC2)cc1=O | 4%
COc1ccc2c(c1)NC(c1cccnc1)=NC(c1ccc(F)cc1)=N2 | -42%
COc1cc(C(=O)Nc2ccc3nn(-c4ccc(F)cc4)nc3c2)cc(OC)c1OC | -8%

Other entries:
SMILES	miR-21 FLuc
Brc1ccc2c(c1)NC(c1cccnc1)=NC(c1ccccc1)=N2	-10%
CCOC(=O)c1cccc(NC(=O)c2cc(-c3ccc(Cl)s3)nc3ccccc23)c1	-3%
COc1ccc(-c2nc(CN3CCC(C(=O)NCCCOC(C)C)CC3)c(C)o2)cc1OC	0%
COc1cccc(CNC(=O)C2CCN(C(=O)c3sccc3-n3cccc3)CC2)c1	2%
COc1ccc(S(=O)(=O)n2nc(C)c(S(=O)(=O)N3CCC(C)CC3)c2C)cc1C	-1%
CC(=O)c1cccc(NC(=O)c2ccc(-n3c(C)nnc3C)cc2)c1	2%
Cc1ccc(-c2nnn3c2nc(N2CCC(C)CC2)c2ccccc23)cc1	-21%
Cc1ccccc1-c1noc(-c2cccnc2NCc2ccco2)n1	1%
CCCCNC(=O)C(CC)Sc1nc2ccccc2c(=O)n1CCc1ccc(OC)c(OC)c1 (centres undefined)	0%
Cc1c(C(=O)Nc2ccccc2Br)oc2ccc(S(=O)(=O)N3CCOCC3)cc12	-8%
Cc1ccc(C)c(C(=O)c2c(N)c(-c3nc(-c4ccc5c(c4)OCO5)cs3)c3ccccn23)c1	-2%
CCc1ccc(CNCc2c(C(=O)O)n(Cc3ccc(C)cc3)c3cc(C)ccc23)cc1	?

Arranged by formula weight (high to low): 3 of the compounds above.
SMILES	miR-21 FLuc
Cc1c(C(=O)Nc2ccccc2Br)oc2ccc(S(=O)(=O)N3CCOCC3)cc12	-8%
Cc1ccc(-c2nnn3c2nc(N2CCC(C)CC2)c2ccccc23)cc1	-21%
CCOC(=O)C(C)NC(=O)c1c(C)oc2ncn(CC(C)C)c(=O)c12 (centres undefined)	-11%

The results go on:
SMILES	miR-21 FLuc
Cc1ccc(C(=O)CC2(O)C(=O)N(CCc3ccccc3)c3ccc(Br)cc32)cc1 (centres undefined)	?
Cn1c(Oc2ccc(F)cc2)nc2c1c(=O)n(Cc1ccccc1Cl)c(=O)n2C	?
Cc1n[nH]c(C)c1S(=O)(=O)N(CC(=O)Nc1ccc(C(F)(F)F)cc1)c1ccc(C(C)C)cc1	?
COc1ccc(NC(=O)C2Cc3ccccc3CN2S(=O)(=O)c2ccccc2)cc1OC (centres undefined)	-6%
COC(=O)C1=C(c2ccccc2)c2ccccc2S(=O)(=O)N1CC(=O)Nc1ccccc1C(F)(F)F	1%
CCc1cc2c(cc3c(=O)n(CC(=O)N4CCN(c5cccc(C)c5C)CC4)nc(CC)n32)s1	1%
O=S(=O)(NCc1nc2cccnc2n1Cc1ccccc1Cl)c1ccc2c(c1)CCCC2	0%
O=C(/C=C/c1ccco1)Nc1ccc(Cl)c(-c2nc3cc(Cl)ccc3o2)c1	-12%
COc1cccc(Cn2c(=O)n(-c3ccc(C)c(F)c3)c(=O)c3sc4ccccc4c32)c1	-2%
Cc1ccc(CN2CCC(CNC(=O)Nc3ccc(Cl)cc3)C2)cc1 (centres undefined)	-3%
COc1ccccc1CNC(=O)c1cccc(NC(=O)N2CCSc3ncccc32)c1	-2%
COc1ccc(Br)cc1CNC(=O)C1COc2ccccc2C1 (centres undefined)	-28%
COc1ccc(-c2cc(C(F)F)n3ncc(C(=O)Nc4cc(OC)ccc4OC)c3n2)cc1	-3%
COc1ccc(N2CCN(C(=O)c3sc4nc5n(c(=O)c4c3C)CCC5)CC2)cc1	1%
CC(=O)c1ccc(N2CCN(C(=O)C3CCN(S(=O)(=O)c4c(C)noc4/C=C/c4ccc(C)cc4)CC3)CC2)cc1	-7%
COc1cccc(NC(=O)CC(C)S(=O)(=O)c2ccc3c(c2)NC(=O)CO3)c1 (centres undefined)	3%
CCC(Sc1nc2nccnc2c(=O)n1Cc1ccc(C)cc1)C(=O)NC1CCCCC1 (centres undefined)	2%
O=C(Nc1cccc(-c2nc3ccccc3o2)c1)c1cccc2c(Cl)cccc12	-1%
CCOC(=O)N1CCC(NC(=O)c2c(C)nn(-c3cccc(C)c3)c2-n2cccc2)CC1	10%
CCC1=C(c2ccc(C)cc2)S(=O)(=O)N=C1N1CCC(C(=O)N2CCCCC2)CC1	-1%
COc1cccc(CNC(=O)c2ccc3c(c2)sc2nc(-c4ccccc4)cn23)c1OC	-21%
Cc1ccc(CNC(=O)CCc2c(C)nn(-c3ccc(N4CCCC4)nn3)c2C)cc1	-8%
Cc1cc(C)c(NS(=O)(=O)c2cc(-c3cnc(C4CC4)o3)ccc2C)c(C)c1	4%
CCC(C)NC(=O)c1cnn(-c2ccc(Cl)cc2)c1C1CCN(C(=O)OC(C)(C)C)CC1 (centres undefined)	-2%
COc1ccc(Br)cc1CNC(=O)c1cc(=O)[nH]c2ccc(S(=O)(=O)N3CCCC3)cc12	-2%
CCc1cccc(NC(=O)Nc2ccc3c(c2)N(C)C(=O)c2ccccc2S3)c1	-22%
Cc1ccc2oc(=O)c3cc(C(=O)Nc4ccccc4C(N)=O)sc3c2c1	-2%
Cc1ccc(NC(=O)c2ccc(NC(=O)N3CCSc4ncccc43)cc2)cc1Cl	11%
Cc1ccc(CNC(=O)CSc2c(C(C)C)cnc3c2c(=O)n(C)c(=O)n3C)cc1	-1%
CC1CCC2C(C1)OS(=O)(=O)NC2(C)C (centres undefined)	1%
CCCCN(C)CCCNC(=O)CN1C(=O)COc2ccc(S(=O)(=O)N3CCC(C)CC3)cc21	2%
CCc1ccc(NC(=O)C2CCCN(S(=O)(=O)c3cccc4cccnc34)C2)cc1 (centres undefined)	22%
CCOc1ccc(CNCCSc2nnnn2C)cc1	1%
COc1ccc(-c2ccc(=O)n(CC(=O)NCCc3ccccc3)n2)cc1	7%
Cc1ccc(C)c(NC(=O)Cn2c(=O)n(Cc3ccc4c(c3)OCO4)c(=O)c3oc4ccccc4c32)c1	1%
Cn1ccnc1SCC(=O)Nc1cc(Cl)ccc1Cl	-21%
Cc1cc(C)c(NC(=O)C2CCCN(S(=O)(=O)c3c(C)noc3C)C2)c(C)c1 (centres undefined)	-1%
Cc1ccc(C)c(N2CCN(C(=O)CN3C(=O)COc4ccc(S(=O)(=O)N5CCCC5)cc43)CC2)c1	-2%
COc1ccc(-n2c(SCCC(C)C)nc3sc4c(c3c2=O)CC(C(C)C)OC4)cc1 (centres undefined)	-2%
CCOC(=O)c1ccc(NC(=O)CN2C(=O)COc3ccc(Cl)cc32)cc1	4%
Cc1ccc(C)c(N2CCN(C(=O)c3cc4c(=O)n(Cc5cccs5)ccc4nc3C)CC2)c1	?
Cc1ccc2nc(-c3cccc(NC(=O)CSc4ccc(Cl)cc4)c3)oc2c1	-37%
Cc1cccn2c(=O)cc(COc3ccc(NC(=O)c4cccc(F)c4)cc3)nc12	-7%
COc1ccc(Cl)cc1NC(=O)c1cn(C2CCCCC2)c(=O)c2c1c1ccccc1n2C	-6%
Cc1ccc(NC(=O)Cn2c(=O)ccc3cc(S(=O)(=O)N4CCC(C)CC4)ccc32)c(C)c1	12%
Cc1ccc(CN(C(=O)COc2cccc([N+](=O)[O-])c2)c2ccccn2)cc1	-10%
CCOC(=O)c1c(C)[nH]c(C)c1S(=O)(=O)NCC(=O)N(C)c1ccc(C)c(C)c1	1%
O=C(c1ccc2c(c1)N(Cc1ccc(F)cc1)CCS2)N1CCN(c2ccccc2)CC1	?

Ordered by value in miR-21 FLuc (lowest first): 4 of the compounds above.
SMILES	miR-21 FLuc
Cc1ccc2nc(-c3cccc(NC(=O)CSc4ccc(Cl)cc4)c3)oc2c1	-37%
Cc1cccn2c(=O)cc(COc3ccc(NC(=O)c4cccc(F)c4)cc3)nc12	-7%
COc1ccc(Cl)cc1NC(=O)c1cn(C2CCCCC2)c(=O)c2c1c1ccccc1n2C	-6%
Cc1ccc(C)c(N2CCN(C(=O)CN3C(=O)COc4ccc(S(=O)(=O)N5CCCC5)cc43)CC2)c1	-2%

(cont.)
SMILES	miR-21 FLuc
CC(=O)Nc1ccccc1-c1nc2ccccc2n(CC(=O)c2ccc(C)c(C)c2)c1=O	-8%
CCc1nn2c(=O)cc(COC(=O)C(CC)c3ccccc3)nc2s1 (centres undefined)	-17%
O=C(c1ccc(F)cc1F)N1CCC(c2noc(-c3ccc(S(=O)(=O)N4CCCC4)cc3)n2)CC1	3%
COc1cccc(-n2ccnc2SCC(=O)Nc2cccc(C)c2C)c1	4%
COc1ccc(C(=O)Nc2nnc(C)s2)cc1	-31%
CCc1ccc2c(c1)NC(c1cccs1)=NC(c1ccc(F)cc1)=N2	-43%
O=C(CSc1n[nH]c(-c2ccc(F)cc2)n1)N1CCN(c2ccc(F)cc2)CC1	-4%
Cc1ccc(NS(=O)(=O)c2c(C)nc3sc(C)c(C)n3c2=O)cc1F	3%
Cc1ccc(-c2noc(CNC(=O)COc3cc(C)c(Br)c(C)c3)n2)cc1	1%
CCc1ccc(C2CC(=O)c3c([nH]c(C(=O)OCC4CCCCC4)c3C)C2)cc1 (centres undefined)	0%
O=C(Cn1nc(Cc2cccnc2)c2ccccc2c1=O)N1CCN(c2ccc(F)cc2)CC1	14%
Cc1ccc(S(=O)(=O)Nc2cc3c(cc2N2CCOCC2)n(C)c(=O)n3C)c(C)c1	-32%

By substructure: the entries above with a CF3 group.
SMILES	miR-21 FLuc
CC(C)Cn1cc(NC(=O)Nc2cccc(C(F)(F)F)c2)c2ccccc2c1=O	?
Cc1n[nH]c(C)c1S(=O)(=O)N(CC(=O)Nc1ccc(C(F)(F)F)cc1)c1ccc(C(C)C)cc1	?
COC(=O)C1=C(c2ccccc2)c2ccccc2S(=O)(=O)N1CC(=O)Nc1ccccc1C(F)(F)F	1%

Following part.
SMILES	miR-21 FLuc
CCOC(=O)c1c(C)[nH]c(C)c1S(=O)(=O)N1CCC(C(=O)Nc2cc(C)ccn2)CC1	-11%
CCOC(=O)c1cccc(NC(=O)c2ccc3c(Cl)c4c(nc3c2)CCC4)c1	0%
CCOC(=O)c1c(C)oc2ncnc(Nc3ccc(F)cc3Cl)c12	-1%
COc1ccc(NC(=O)CCc2c(C)nc3cc(-c4cccc(F)c4)nn3c2C)cc1Cl	29%
Cc1c(Cl)cccc1NC(=O)C(C)N(c1ccccc1)S(C)(=O)=O (centres undefined)	-1%
Cc1cccc(C)c1NC(=O)C(=O)NCC(c1cccnc1)N1CCc2ccccc21 (centres undefined)	-4%
COc1ccc(C(=O)Nc2ccc3nc(SCC(=O)N4CCCC4)sc3c2)cc1	-16%
CCOC(=O)N1CCc2c(sc3c2c(=O)n(CCc2ccccc2)c(=O)n3Cc2cc(C)ccc2C)C1	1%
COc1ccc(CNc2oc(/C=C/c3cccc(OC)c3)nc2C#N)cc1	-14%
Oc1ccc(Cl)cc1C1=Nc2ccccc2N=C(c2cccc(Br)c2)C1	-27%
CCOC(=O)c1cc(S(=O)(=O)Nc2ccc(OC(F)(F)F)cc2)[nH]n1	-10%
O=C(Nc1cc(C(F)(F)F)ccc1Cl)c1cc2nc(-c3ccc4c(c3)OCO4)cc(C(F)(F)F)n2n1	-3%
COc1cccc(N(Cc2nnc3n2CCCCC3)C(=O)Nc2cccc(Cl)c2)c1	-13%
Cc1ccc(OCCSc2nc3ccccc3n2CC(=O)N2CCOCC2)cc1C	-6%
Cc1cccc(-c2nc(SCCCOc3ccc(Cl)c(C)c3)n3[nH]c(=O)cc3n2)c1	0%
CC(=O)Nc1nonc1-c1nnc(SCC(=O)Nc2cc(C)cc(C)c2)n1C	-5%
C=CCc1ccccc1OCCn1c(C2CC(=O)N(Cc3ccc(F)cc3)C2)nc2ccccc21 (centres undefined)	-1%
Cc1ccc(OCC(=O)NCC(=O)OCc2cc(=O)n3nc(CC(C)C)sc3n2)cc1	-2%
CCOC(=O)C1CCN(C(=O)C2CCN(c3nnc(C)c4c(C)n(-c5ccccc5)nc34)CC2)CC1	-6%
COc1cc(C(=O)NCC(c2ccco2)S(=O)(=O)c2cccs2)cc(OC)c1OC (centres undefined)	1%
COc1ccc(NC(=O)CN2CCCN(S(=O)(=O)c3ccc(Br)cc3)CC2)c(OC)c1	?
COc1ccc(-c2cc(C(F)(F)F)n3nc(C(=O)NCC45CC6CC(CC(C6)C4)C5)cc3n2)cc1	15%
CC(C)COc1ccc(C(=O)Nc2ccc(S(=O)(=O)Nc3ncccn3)cc2)cc1	0%
CCCN(C(=O)c1nn(-c2ccc(OC)c(Cl)c2)c(=O)c2c1c1ccccc1n2C)c1ccccc1F	-6%

The list is partial, so the mix of outcomes need not match the whole.
